Vaccinia Venus = qHTS for Stage-Specific Inhibitors of Vaccinia Orthopoxvirus: Venus Reporter Primary qHTS. Potency, µM (doses to about 36.5 µM), without a hit: top-dose activity change, negative = inhibition, hits mostly inhibitors. 330,000 tested, 0.46% active. AID 720580, 2013. Vaccinia virus Venus reporter expression, fluorescence; active means well fitted inhibition curve with a large enough effect; inconclusive means small, poorly fitted or top-dose-only effect; inactive means no such curve, though single readings can be large or run the other way; tested in A549 cells; note: nearly all actives have a fitted effect of over 30% in size; inactives centre near -10
Vaccinia mCherry = qHTS for Stage-Specific Inhibitors of Vaccinia Orthopoxvirus: mCherry Reporter Primary qHTS. 310,000 tested, 0.63% active. Potency, µM (titrated, usually from 36.5 µM), without a hit: at the top dose activity change, negative = inhibition, usual class: inhibitors. Vaccinia virus mCherry reporter infection, fluorescence; about a quarter of the inactives have no number; active = well fitted inhibition curve with a large enough effect; inconclusive = small, poorly fitted or top-dose-only effect; inactive = no such curve, though single readings can be large or run the other way; tested in A549 cells; note: nearly all actives have a fitted effect of over 35% in size; inactives centre near -10
An asterisk follows results filed as active; i = inactive; ? = inconclusive; . = not tested or not shown; & = joins results of further samples; [ ] = remark or other dose. % is set by controls: 0 for no effect and ±100 for the full control effect; potency is the fitted concentration of half-maximal effect.

cpd	Structure	Vaccinia Venus	Vaccinia mCherry
1	N#CC(C#N)=C(N)/C(C#N)=C/c1cc(O)c(O)c(O)c1	9%&8%	-14%&-15%
2	O=c1c2cnn(-c3ccccc3)c2ncn1Cc1cccnc1	8%	.
3	COc1cc(/C=N\NC(=O)CC#N)ccc1OC/C=C/c1ccccc1	0%	-22%
4	CCCCCCc1c(C)c2c(cc(C)c3c(C)c(C)oc32)oc1=O	-4%	-6%
5	C=CCNC(=O)c1onc(CSc2ccc(Cl)cc2)c1C(=O)NCC=C	-16%	i
6	O=C(CSC1=NS(=O)(=O)c2cc(F)ccc2N1)NCc1ccccc1	-13%	i
7	Cc1ccc(CN2CCC(CNc3ncnc4onc(-c5ccc(F)cc5)c34)CC2)cc1	-12%	-19%
8	COc1ccc(Nc2nc3ccc(Cl)cc3nc2-n2nc(C)cc2C)cc1	-7%	-3%
9	Cc1cc(=O)[nH]c2ccccc12	1%&-4%	-8%&16%
10	NC(=O)C1CCN(C(=O)c2ccccc2SCC(=O)NCC2CCCCC2)CC1	-13%	-22%
11	O=[N+]([O-])c1ccccc1/C=N/n1c(C2CCCCC2)n[nH]c1=S	-10%	-2%
12	Cc1cc(OCC(=O)Nc2cnn(CCCC(=O)O)c2)ccc1Cl	-10%&6%	1%
13	CCOc1c(Cl)cc(CNCc2ccncc2)cc1OC	-16%	i
14	Cc1ccc(C(=O)Nc2nc(-c3nnn(-c4cccc(Cl)c4C)c3C)ns2)cc1C	-17%	-2%
15	CC(=O)N(c1ccccc1)C(C(=O)c1ccccc1)c1ccccc1 (stereo unspecified)	-12%	-13%
16	CNC(=O)C1(C)CCN1C(=O)c1ccccc1CCc1ccccc1 (stereo unspecified)	-4%	4%
17	O=C(CNc1cccc(S(=O)(=O)N2CCCC2)c1)Nc1cccc(Br)c1	?	-24%
18	Cc1cc(-c2nnc(SCC(=O)Nc3ccccc3)n2C)no1	-15%	-6%
19	C[C@H](N)Cc1cnc[nH]1	-10%	-15%
20	NC1=CC(=O)C(=O)c2cccnc21	?	-17%
21	O=C(Nc1ccc(Cl)cc1)Nc1ccc(N2CCCC2)c(S(=O)(=O)Nc2ccccc2Cl)c1	?	?
22	CC(C)(C)c1ccccc1NC(=O)c1ccc(-n2cncn2)c([N+](=O)[O-])c1	-18%	-9%
23	CC(C)N(C(=S)NCc1ccccc1)C(C)C	-10%	0%
24	CC(C)Cc1nc(SCC(=O)Nc2nnc(CC(C)C)s2)n[nH]1	-12%	-1%
25	Cc1ccsc1C(C(=O)NC(C)(C)C)N(Cc1ccco1)C(=O)c1csnn1 (stereo unspecified)	-9%	i
26	Cc1ccc(N2CC(O)=C(c3ccccc3)C2=N)cc1	0%	-4%
27	O=C(Cc1ccc(Cl)cc1)SCc1ccccc1	-7%	i
28	Nc1ccc(C(=O)c2cccs2)cn1	-11%	i
29	O=C(Nc1ccc(-c2cn3ccsc3n2)cc1)C1CC1	-29%	?
30	Cc1nnc(SCC(=O)Nn2cnnc2)s1	-14%	-9%
31	COc1ccc(N2CCN(C(=O)c3ccc(S(=O)(=O)N4CCCC4)cc3)CC2)cc1	-1%	i
32	COc1cc(O)cc2cc3c(c(O)c12)C(=O)CC(C)(O)O3 (stereo unspecified)	-15%	-15%
33	COc1cccc2sc3cc(C#CC4(O)CCCCC4)ccc3c(=O)c12	-24%	?
34	O=C(NCc1ccc(F)cc1)c1cnn2ccccc12	-14%	-13%
35	O=C1NC(=O)N(c2ccccc2)C(=O)/C1=C\c1ccc([N+](=O)[O-])s1	169%[activator]	4%
36	Cn1c(SCC(=O)Nc2ccc3c(c2)OCCO3)nnc1-c1ccncc1	1%	i
37	O=C(NCC(c1ccco1)N1CCc2ccccc21)c1ccccc1F (stereo unspecified)	-10%	i
38	COc1ccc(OCC(=O)Nc2ccc(S(=O)(=O)N3CCCCC3)cc2)cc1	-11%	-7%
39	Cc1cc(Oc2ccc(-c3nnc(-c4ccccc4)o3)cc2[N+](=O)[O-])ccc1Cl	-8%	-7%
40	COC(=O)/C(=C\C=C\c1ccccc1)NC(=O)c1ccccc1	-3%	-4%
41	COc1ccc(CNC(=O)Cn2cc3c(n2)CCCCC3)cc1	-6%	0%
42	Cc1cc(C)c2oc(C(=O)N(Cc3ccccc3)c3ccccn3)cc(=O)c2c1	20%	4%
43	Cc1ccnc(NC(=O)c2ccc(N3C(=O)CCC3=O)cc2)c1	0%	-6%
44	CCc1nn(CC(=O)Nc2c(C)cccc2C)c(=O)c2cc3sccc3n12	-4%	6%
45	COc1cccc(CNC(=O)CSc2ncc(S(=O)(=O)c3ccc(Br)cc3)c(=O)[nH]2)c1	1%	-1%
46	Cc1ccc2cc(CCNC(=O)c3ccc4c(c3)OCO4)c(=O)[nH]c2c1	-8%	i
47	CCOC(=O)c1ccc(-n2ccnc2)c(NC(=O)c2ccc(Cl)cc2)c1	-14%	-4%
48	Cc1cc(=O)n(CCc2ccccc2)c(O)c1C#N	-5%	.
49	CCCCN(C(=O)c1cc(Cl)nc2ccccc12)c1c(N)n(CCCC)c(=O)[nH]c1=O	0%	-8%
50	COc1ccccc1N1CCN(C(=O)c2cc3c(=O)oc4ccc(C)cc4c3s2)CC1	-1%	6%

Continued:
cpd	Structure	Vaccinia Venus	Vaccinia mCherry
51	CSc1nc2ccc(NC(=O)c3ccc(Cl)s3)cc2s1	-22%	-19%
52	COc1ccc(CCn2c(-c3ccc(F)cc3)nc3c(c(=O)c4ccccc4n3C)c2=O)cc1OC	2%	i
53	CN1CCN(C(=O)C2=C[C@@H](c3ccccc3)C[C@@H](OCc3ccc(CO)cc3)O2)CC1	-15%	-25%
54	CCCCCCN1C[C@H](n2cc(-c3ccc(F)cc3)nn2)[C@@H](O)C[C@@H]1c1ccc(Cl)cc1	14µM*	?
55	O=C(O)CCCC(=O)Nc1ccccc1-n1ccnc1	-8%	.
56	[O-][N+](=NC1C=Cc2ccccc21)C1C=Cc2ccccc21 (stereo unspecified)	7%	?
57	Cc1ccc(NC(=O)C2OCCc3ccccc32)cc1 (stereo unspecified)	2%	i
58	S=C(NNc1cccc(Cl)c1)NC1CCCCC1	-20%	-21%
59	CC(C)(C)c1ccc(OCCC(=O)Nc2cccc(S(=O)(=O)NC3=NCCCCC3)c2)cc1	-21%	-21%
60	CCOC(=O)C1CCC(=O)N1Cc1c[nH]c2ccccc12 (stereo unspecified)	6%	7%
61	CC(C)C[C@H]1CN(CCCC[C@H]2CNC(=O)C(=O)N2CCc2ccccc2)C(=O)C(=O)N1CCc1ccccc1	2%	2%
62	CN(CC(=O)N1CCOCC1)S(=O)(=O)c1cc(Cl)ccc1Cl	21%	15%
63	COc1ccccc1C(=O)NC(=S)Nc1ccc2[nH]c(=O)[nH]c2c1	-6%	-12%
64	Cc1ccc(CNC(=O)c2ccccc2CCc2ccccc2)cc1	-12%	-3%
65	CC1CCC(NC(=O)CN2C(=O)NC(C)(C)C2=O)CC1 (stereo unspecified)	-13%	-15%
66	Cc1cc2[nH]c(=O)c(=O)[nH]c2cc1S(=O)(=O)N1CCN(c2ccccc2F)CC1	6%	9%
67	COc1ccc(S(=O)(=O)N[C@@H](CSCc2ccccc2)C(=O)O)cc1	-13%	-7%
68	Cc1ccc(-n2nc3c(=O)n(CCCC(=O)NCCc4ccccc4)nc(C)c3c2C)cc1	-28%	-1%
69	CCNC(=S)NN=C1CCC(C(C)(C)C)CC1 (stereo unspecified)	-6%	-19%
70	C#CCN(C[C@@H]1[C@@H](OC(=O)NCc2ccco2)[C@@H](OC(=O)NCc2ccco2)Cn2c(=O)n(CCCCCC)c(=O)n21)S(=O)(=O)c1ccc(C)cc1	-25%	-19%
71	COCCNC(=O)C(c1ccc(Cl)cc1)N(C(=O)Cn1nnc2ccccc21)c1cccnc1 (stereo unspecified)	-1%	i
72	Cc1cc(C)nc(NS(=O)(=O)c2ccc(NC(=O)Cn3c(=O)oc4ccccc43)cc2)n1	-9%	i
73	Cc1c(C)c2ccc(O[C@@H]3O[C@H](CO)[C@H](O)[C@H](O)[C@H]3O)c(C)c2oc1=O	-15%	i
74	O=C(COC(=O)c1ccc(S(=O)(=O)N2CCOCC2)cc1)Nc1ccccc1OC(F)F	-4%	-14%
75	O=C(NC1CC1)C1CCN(C2CCN(C(=O)/C=C/c3cccc(F)c3F)CC2)CC1	-17%	-4%
76	Cc1nnc(SCC(=O)NN2C(=O)NC3(CCCCC3)C2=O)s1	-6%	-16%
77	CCn1c(Cc2ccccc2)nnc1SCC(=O)N1CCCCC1	-14%	-17%
78	C#CCSc1nnc(-c2ccc(OC)cc2)o1	?	?
79	CCOc1ccc(NC(=O)c2ccc3nc(C(C)C)oc3c2)cc1	?	-29%
80	CCOC(=O)/C(=N/Nc1ccccc1)Sc1nnc(CCc2ccccc2)n1-c1ccccc1	-6%	-6%
81	C=CCN1C(=O)/C(=C/c2ccc(OC)cc2)S/C1=N/c1nccs1	-3%	-9%
82	COc1cc2nc(N(CCCN(C)C)C(=O)c3ccc(C(=O)c4ccccc4)cc3)sc2cc1OC	-14%	-24%
83	CC(=O)c1c(C)[nH]c(C(=O)Nc2ccccc2Cl)c1C	-16%	-13%
84	CN1CC(=O)Nc2cc(C(=O)O)ccc21	-15%	-15%
85	N#Cc1ccc(Oc2ccc(/C=N/O)cn2)cc1	-5%	.
86	CC1CCN(c2ccc([N+](=O)[O-])c(SCCO)c2)CC1	-7%	i
87	OC[C@H](S)CS	-6%	i
88	CC=C(C)C(=O)O[C@H]1C(C)=C2[C@@H]3OC(=O)[C@@](C)(O)[C@@]3(O)[C@@H](OC(=O)CCC)C[C@](C)(OC(C)=O)[C@@H]2[C@@H]1OC(=O)CCCCCCC	-42%	?
89	CC(C)(C)OC(=O)NCc1ccc(NC(=O)c2nc[nH]c2C(=O)NCCNC(=O)c2[nH]cnc2C(=O)Nc2ccc(CNC(=O)OC(C)(C)C)cc2)cc1	-21%	-9%
90	COc1cc(SC)ccc1C(=O)OCC(=O)N1CC(=O)Nc2ccccc21	-11%	i
91	O=C(Nc1nc(-c2nc3ccccc3s2)cs1)C1COc2ccccc2O1 (stereo unspecified)	-9%	-6%
92	COc1cc2nc(Cl)nc(NC3CCN(C)CC3)c2cc1OC	-19%	-25%
93	O=C(C[C@H]1C/C=C\CC[C@@H](Cc2ccc(F)cc2)C(=O)OC[C@H]2CCCN2C1=O)N[C@H](CO)Cc1ccccc1	-10%	-9%

Molecules shown so far that have an aryl methoxy group:
cpd	Structure	Vaccinia Venus	Vaccinia mCherry
3	COc1cc(/C=N\NC(=O)CC#N)ccc1OC/C=C/c1ccccc1	0%	-22%
8	COc1ccc(Nc2nc3ccc(Cl)cc3nc2-n2nc(C)cc2C)cc1	-7%	-3%
13	CCOc1c(Cl)cc(CNCc2ccncc2)cc1OC	-16%	i
31	COc1ccc(N2CCN(C(=O)c3ccc(S(=O)(=O)N4CCCC4)cc3)CC2)cc1	-1%	i
32	COc1cc(O)cc2cc3c(c(O)c12)C(=O)CC(C)(O)O3 (stereo unspecified)	-15%	-15%
33	COc1cccc2sc3cc(C#CC4(O)CCCCC4)ccc3c(=O)c12	-24%	?
38	COc1ccc(OCC(=O)Nc2ccc(S(=O)(=O)N3CCCCC3)cc2)cc1	-11%	-7%
41	COc1ccc(CNC(=O)Cn2cc3c(n2)CCCCC3)cc1	-6%	0%
45	COc1cccc(CNC(=O)CSc2ncc(S(=O)(=O)c3ccc(Br)cc3)c(=O)[nH]2)c1	1%	-1%
50	COc1ccccc1N1CCN(C(=O)c2cc3c(=O)oc4ccc(C)cc4c3s2)CC1	-1%	6%
52	COc1ccc(CCn2c(-c3ccc(F)cc3)nc3c(c(=O)c4ccccc4n3C)c2=O)cc1OC	2%	i
63	COc1ccccc1C(=O)NC(=S)Nc1ccc2[nH]c(=O)[nH]c2c1	-6%	-12%
67	COc1ccc(S(=O)(=O)N[C@@H](CSCc2ccccc2)C(=O)O)cc1	-13%	-7%
78	C#CCSc1nnc(-c2ccc(OC)cc2)o1	?	?
81	C=CCN1C(=O)/C(=C/c2ccc(OC)cc2)S/C1=N/c1nccs1	-3%	-9%
82	COc1cc2nc(N(CCCN(C)C)C(=O)c3ccc(C(=O)c4ccccc4)cc3)sc2cc1OC	-14%	-24%
90	COc1cc(SC)ccc1C(=O)OCC(=O)N1CC(=O)Nc2ccccc21	-11%	i
92	COc1cc2nc(Cl)nc(NC3CCN(C)CC3)c2cc1OC	-19%	-25%

Compound activity from PubChem BioAssay.
